Screening results from PubChem.
PINK1 modulator: modulators of PINK1 expression. AID 624263. Potency, µM (doses to about 76.6 µM), for the others: at the highest dose activation (PINK1 increase), usual class: activators. hit rate 0.2% among 410,000. PINK1 immunofluorescence, high-content cytometry, 24 h; active = well fitted activation curve with a large enough effect; inconclusive = small, poorly fitted or top-dose-only effect; inactive = flat fitted curve, though single readings scatter; cell line not stated here;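 also: % of control where 0% means no effect; nearly all actives have a fitted effect of over 65% in size; a mitochondrial uncoupler was the plate control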
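Fluorescence from anti-PINK1 antibody, together with nuclear and cell stains, was scanned on a laser-scanning cytometer. Before staining, stable-line cells were incubated 24 hours with compounds at 5 concentrations; primary antibody 12 h at 10 degrees C.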
ClpP mod: qHTS Assay for Activators of ClpP; ATP-dependent Clp protease proteolytic subunit (Bacillus subtilis (strain 168)), P80244; purified B. subtilis ClpP, FRET peptide cleavage, 20 min; Potency, µM (titrated, usually from 57.5 µM), without a hit: at the highest dose activity change, negative = active; hit rate 1.9% among 340,000; active = well fitted falling curve with a large enough effect; inconclusive = small, poorly fitted or top-dose-only effect; inactive = no such curve, though single readings can be large or run the other way; also: the source files actives as falling curves though it sought activators and does not explain the sign; nearly all actives have a fitted effect of over 65% in size; many hits overshoot -100%
Target sequence (P80244 whole entry, looked up): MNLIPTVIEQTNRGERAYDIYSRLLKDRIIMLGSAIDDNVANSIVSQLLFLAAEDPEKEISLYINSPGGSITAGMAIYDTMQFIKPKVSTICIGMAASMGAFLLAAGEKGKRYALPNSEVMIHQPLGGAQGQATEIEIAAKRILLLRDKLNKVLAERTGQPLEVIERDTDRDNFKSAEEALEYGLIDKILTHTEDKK
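Buffer: 100 mM Tris/HCl pH8, 100 mM KCl, 0.05% low protease BSA, 2.5% glycerol, 0.01% Tween-20. ClpP 10 microg/mL final; 20 min RT; delta FRET normalized to ADEP and DMSO controls.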
An asterisk follows results filed as active; ? = inconclusive; . = not tested or not shown. Potency is read from the fitted curve at half-maximal effect. Some of the compounds tested. The share of hits here may be higher or lower than overall.

SMILES	PINK1 modulator	ClpP mod
CC(=O)N(C)CC#CCN1CCCC(CO)C1 (stereo unspecified)	-1.2%	.
CNCC(O)c1cc(OCc2ccccc2)c(OCc2ccccc2)cc1F (stereo unspecified)	-1.5%	.
COc1ccc(C(O)CNC(C)C)c(F)c1OC (stereo unspecified)	-0.3%	.
COc1cc(C(O)CNC(C)C)cc(F)c1OC (stereo unspecified)	-0.3%	.
COc1cccc(-c2ccc(O)c(CNC3CN4CCC3CC4)c2)n1 (stereo unspecified)	-0.6%	.
COc1cc([N+](=O)[O-])cc([N+](=O)[O-])c1N	.	2.1%
c1ccc(N2[C@@H]3CC[C@H]2c2ccncc2C3)cc1	.	1.0%
ClCCN(CCCl)c1ccc(C=Nc2ccc(/C=C/c3ccncc3)cc2)cc1	.	-16%
ClCCN(CCCl)c1ccc(C=Nc2ccc(/C=C/c3ccnc4ccccc34)cc2)cc1	.	-13%
c1ccc(CCN2CCCC2)cc1	.	1.5%
NCC(=O)c1ccc(Cl)c(Cl)c1	.	-2.6%
C[C@H]1COc2cc(N3CCN(C)CC3)ccc2S(=O)(=O)N1	-1.0%	-5.9%
N#Cc1cccc(NC(=O)CSc2nc3c(cc2C#N)N2CCC3CC2)c1	0.5%	2.2%
CC(=O)c1cccc(NC(=O)c2cc3c(s2)-c2c(C)cccc2OC3)c1	4.9%	?
CCOC(=O)[C@]12Cc3cc4ccccc4cc3[C@H]1N(Cc1ccccc1)C(=O)c1ccccc12	-1.4%	-9.1%
Cc1cccc(CN2C(=O)CN=C(c3ccccc3)c3ccccc32)c1	5.6%	-3.4%
COc1ccc(NC(C)=O)cc1NC(=O)c1cccn(Cc2ccccc2)c1=O	-1.7%	-3.1%
COc1cccc(-c2cc(C(=O)Nc3cnn(Cc4ccc(Cl)cc4Cl)c3)no2)c1	2.5%	157%
Cc1ccc(C(C)(C)C)c(OCC(=O)Nc2ccc(Cl)cc2C(=O)c2ccccc2)c1	3.1%	0.3%
CCOC(=O)[C@]12Cc3cc(C)ccc3[C@H]1N(Cc1ccccc1)C(=O)c1cc(OC)ccc12	-1.4%	-24%
O=C1CC(c2c(F)cccc2Cl)c2c(c3ccccc3oc2=O)O1 (stereo unspecified)	1.7%	4.2%
Cc1ccc(-n2c(/C=C/c3ccc(Br)s3)nc3ccccc3c2=O)cc1	0.6%	0.5%
COc1ccc(OCC(=O)N2CCN(Cc3cc(=O)n4nc(-c5ccccc5C)sc4n3)CC2)cc1	1.7%	-2.2%
COc1ccc(Cl)cc1NC(=O)CN1C(=O)CN=C(c2ccccc2)c2cc(Cl)ccc21	1.0%	-3.4%
O=C(COc1ccccc1F)N1CCN(Cc2cc(=O)n3nc(-c4ccccc4Cl)sc3n2)CC1	-1.7%	-4.7%
CCCCCN1C(=O)c2cc(OC)ccc2[C@@]2(C(=O)OCC)Cc3cc(Cl)ccc3[C@@H]12	-1.3%	-14%
Cc1ccc2nc(NC(=O)c3cccn(Cc4ccc(Cl)cc4)c3=O)sc2c1	-5.3%	-5.8%
COc1cccc(-n2c(/C=C\c3ccc(Cl)cc3)nc3ccccc3c2=O)c1	0.7%	?
CCCCc1ccc(NC(=O)c2cccn(Cc3ccc(Cl)cc3)c2=O)cc1	-4.4%	-2.9%
CC(=O)c1ccc(NC(=O)c2sc3nc4c(cc3c2N)N2CCC4CC2)cc1	-1.2%	-13%
COc1cc([C@@H]2c3cc4c(cc3C[C@H]3COC(=O)[C@@H]32)OCO4)cc(OC)c1O	0.2%	-1.5%
Cc1nnc(NC(=O)c2cccn(Cc3ccccc3)c2=O)s1	0.3%	-6.8%
CCC12CN3CC(CC)(CN(C1)C3c1ccccn1)C2=O (stereo unspecified)	-0.1%	-1.9%
Cc1ccc(Cn2cccc(C(=O)Nc3cc([N+](=O)[O-])ccc3C)c2=O)cc1	1.4%	1.4%
Cc1cc(N2CCCCC2)nc2ccc(NC(=O)CCC(=O)N3CCN(c4cccc(Cl)c4)CC3)cc12	3.0%	32µM*
O=C(COc1ccc(Br)cc1)Nc1ccc(Cl)cc1C(=O)c1ccccc1	1.6%	-0.8%
Cc1ccccc1Cn1cccc(C(=O)Nc2cc(Cl)ccc2C#N)c1=O	-3.5%	67%
COC(=O)c1ccccc1NC(=O)c1cccn(Cc2cccc(Cl)c2)c1=O	-2.9%	-7.2%
Cc1ccc2c(c1)C(Cc1nc3ccccc3c(=O)n1-c1ccc(Br)cc1)C(=O)N2 (stereo unspecified)	0.9%	-1.8%
O=C(CN1CCOCC1)c1cccc([N+](=O)[O-])c1	-0.5%	-5.0%
Cc1ccc(-n2c(/C=C/c3cccs3)nc3ccccc3c2=O)cc1C	-1.1%	-3.8%
CC(C)c1ccc(OCC(=O)N2CCN(CCc3ccncc3)CC2)cc1	0.4%	-2.8%
Cc1ccc2c(=O)n(-c3cccc(Cl)c3)c(=O)[nH]c2c1	0.3%	-0.6%
N#Cc1cc2c(nc1SCC(=O)Nc1ccc(Cl)c(C(F)(F)F)c1)C1CCN2CC1	1.1%	-5.6%
O=C(Nc1ccc(F)c([N+](=O)[O-])c1)c1cccn(Cc2ccccc2)c1=O	-1.0%	-3.4%
CCOC(=O)[C@]12Cc3cc(Cl)ccc3[C@H]1N(C1CCCCC1)C(=O)c1cc(OC)ccc12	-1.2%	-0.6%
Cc1nnc(NC(=O)c2cccn(Cc3cccc([N+](=O)[O-])c3)c2=O)s1	0.4%	0.0%
COc1cc(C(c2c(O)c3ccccc3oc2=O)c2c(C)n(C)n(-c3ccccc3)c2=O)ccc1OCC(=O)O (stereo unspecified)	1.1%	-1.7%
CCOC(=O)[C@]12Cc3c(cc(OC)c(OC)c3OC)[C@H]1N(C)C(=O)c1cc(OC)ccc12	-1.3%	-0.7%
Cc1cc(C)cc(-n2c(/C=C/c3cccc(F)c3)nc3ccccc3c2=O)c1	0.7%	1.2%
Cc1ccc2scc(N3CCN(C)CC3)c(=O)c2c1	-0.5%	-24%
Cc1ccc(C)c(S(=O)(=O)c2nnn3c2nc(N2CCCC2)c2sccc23)c1	0.1%	?
CC1OC(O[C@H]2C[C@@H](O)[C@]3(CO)[C@H]4[C@H](O)C[C@]5(C)[C@@H](C6=CC(=O)OC6)CC[C@]5(O)[C@@H]4CC[C@]3(O)C2)C(O)C(O)C1O (stereo partly specified)	-0.9%	0.5%
COc1ccccc1-n1c(/C=C/c2ccccc2)nc2ccccc2c1=O	2.1%	0.0%
Cc1ccc(NC(=O)N(Cc2ccc3c(c2)OCO3)C2CCN(Cc3ccccc3)CC2)cc1F	4.9%	-3.0%
Cc1cc(-n2c(/C=C/c3ccc(Br)s3)nc3ccccc3c2=O)ccc1Br	1.1%	0.2%
O=C(Nc1ccc(F)c(Cl)c1)N(Cc1ccc2c(c1)OCO2)C1CCN(Cc2ccccc2)CC1	1.3%	-2.7%
CCCCCN1C(=O)c2ccccc2[C@@]2(C(=O)OCC)Cc3cc(Cl)ccc3[C@@H]12	-0.5%	0.2%
O=c1c2ccccc2nc(/C=C\c2cccc(Br)c2)n1-c1ccc(O)cc1	2.0%	224%
c1cc2c3c(cccc3c1)CC2	0.7%	-0.2%

3 entries already listed, sorted by count of non-hydrogen atoms, ascending:
SMILES	PINK1 modulator	ClpP mod
CCCCCN1C(=O)c2ccccc2[C@@]2(C(=O)OCC)Cc3cc(Cl)ccc3[C@@H]12	-0.5%	0.2%
Cc1ccc(NC(=O)N(Cc2ccc3c(c2)OCO3)C2CCN(Cc3ccccc3)CC2)cc1F	4.9%	-3.0%
CC1OC(O[C@H]2C[C@@H](O)[C@]3(CO)[C@H]4[C@H](O)C[C@]5(C)[C@@H](C6=CC(=O)OC6)CC[C@]5(O)[C@@H]4CC[C@]3(O)C2)C(O)C(O)C1O (stereo partly specified)	-0.9%	0.5%

New compounds follow.
SMILES	PINK1 modulator	ClpP mod
Cc1cccc(-c2nc(CN3C(=O)CN=C(c4ccccc4)c4ccccc43)c(C)o2)c1	-0.6%	-1.1%
COC(=O)c1ccc(NC(=O)c2cccn(Cc3ccccc3C)c2=O)cc1	-5.0%	-2.2%
Cc1cc(NC(=O)c2cccn(Cc3cccc([N+](=O)[O-])c3)c2=O)no1	1.3%	-4.3%
COc1ccc(Cl)cc1NC(=O)c1sc2nc3c(cc2c1N)N1CCC3CC1	?	-14%
COc1cccc(NC(=O)Cn2cc(C(=O)c3ccccc3)c3ccccc32)c1	3.5%	-21%
CCOC(=O)[C@]12Cc3cc(Cl)ccc3[C@H]1N(C)C(=O)c1cc(OC)ccc12	-1.3%	-8.3%
Cc1cc(Br)cn2c(CC(=O)N3CCCCC3)c(-c3ccc(F)cc3)nc12	0.6%	1.4%
Cc1cccc2nc(-c3ccccc3)c(-c3ccc(CN4CCC(n5c(=O)[nH]c6ccccc65)CC4)cc3)nc12	1.2%	25µM*
CNC(=O)O/N=C/C(C)(C)S(C)=O (stereo unspecified)	0.6%	0.8%
O=C(O)/C=C/c1ccc2c(c1)OCO2	0.3%	4.4%
CCOC(=O)c1ccc(NC(=O)c2cccn(Cc3ccc(C)cc3)c2=O)cc1	-0.3%	-0.5%
CCOC(=O)[C@]12Cc3ccccc3[C@H]1N(C1CCCCC1)C(=O)c1cc(OC)ccc12	-1.4%	-3.2%
CCOC(=O)[C@]12Cc3cc(Cl)ccc3[C@H]1N(Cc1ccccc1)C(=O)c1cc(OC)ccc12	-1.4%	-6.2%
CCCOC(=O)c1c(C)oc2c1cc(NS(=O)(=O)c1ccc(OCC)cc1)c1ccccc12	2.8%	41%
Cc1ccc(Cn2cccc(C(=O)Nc3nnc(C)s3)c2=O)cc1	0.2%	-3.6%
Cn1cc(/C=C/c2nc3ccccc3c(=O)n2-c2ccccc2)c2ccccc21	3.7%	-1.3%
COc1ccc(-n2c(/C=C\c3ccccc3F)nc3ccccc3c2=O)cc1OC	1.5%	0.6%
CCOC(=O)c1ccc(NC(=O)CSc2nc3c(cc2C#N)N2CCC3CC2)cc1	-1.5%	-10%
Cc1ccc(C)c(CN2C(=O)c3ccccc3Sc3ccc(C(=O)N4CCC5(CC4)OCCO5)cc32)c1	0.3%	0.5%
COC1=C(C)C(=O)c2c(c(COC(N)=O)c3n2C[C@@H]2[C@@H]3N2C)C1=O (stereo partly specified)	-1.2%	2.9%
Cc1ccc(C)c(N2CCN(C(=O)C3CCN(Cc4nc(-c5cccc(Cl)c5)oc4C)CC3)CC2)c1	2.9%	?
CC(C)(C)c1ccc(C(=O)Nc2ccc3nc(SCC(=O)N4CCCC4)sc3c2)cc1	0.3%	?
Cc1cc(C)cc(NC(=O)CN2C(=O)CN=C(c3ccccc3)c3cc(Cl)ccc32)c1	1.3%	2.3%
CCSc1nnc(NC(=O)c2cccn(Cc3ccc(Cl)cc3)c2=O)s1	-4.3%	-1.9%
CCc1ccc(-n2nc(C)c3c2NC(=O)CSC3c2ccccc2C)cc1 (stereo unspecified)	7.1%	1.6%
Cc1ccc(Cn2cccc(C(=O)Nc3ccc(C)c(Cl)c3)c2=O)cc1	0.4%	3.7%
COc1ccccc1-c1nn2c(=O)cc(CN3CCN(C(=O)COc4ccccc4Cl)CC3)nc2s1	-0.6%	-18%

Part of the list above in order of formula weight, ascending:
SMILES	PINK1 modulator	ClpP mod
O=C(O)/C=C/c1ccc2c(c1)OCO2	0.3%	4.4%
CNC(=O)O/N=C/C(C)(C)S(C)=O (stereo unspecified)	0.6%	0.8%
COC1=C(C)C(=O)c2c(c(COC(N)=O)c3n2C[C@@H]2[C@@H]3N2C)C1=O (stereo partly specified)	-1.2%	2.9%
Cc1ccc(Cn2cccc(C(=O)Nc3nnc(C)s3)c2=O)cc1	0.2%	-3.6%
Cc1ccc(Cn2cccc(C(=O)Nc3ccc(C)c(Cl)c3)c2=O)cc1	0.4%	3.7%
Cn1cc(/C=C/c2nc3ccccc3c(=O)n2-c2ccccc2)c2ccccc21	3.7%	-1.3%
CCc1ccc(-n2nc(C)c3c2NC(=O)CSC3c2ccccc2C)cc1 (stereo unspecified)	7.1%	1.6%
CCOC(=O)c1ccc(NC(=O)c2cccn(Cc3ccc(C)cc3)c2=O)cc1	-0.3%	-0.5%
COc1ccc(-n2c(/C=C\c3ccccc3F)nc3ccccc3c2=O)cc1OC	1.5%	0.6%
CCSc1nnc(NC(=O)c2cccn(Cc3ccc(Cl)cc3)c2=O)s1	-4.3%	-1.9%
CCOC(=O)[C@]12Cc3ccccc3[C@H]1N(C1CCCCC1)C(=O)c1cc(OC)ccc12	-1.4%	-3.2%
CCOC(=O)c1ccc(NC(=O)CSc2nc3c(cc2C#N)N2CCC3CC2)cc1	-1.5%	-10%
CCOC(=O)[C@]12Cc3cc(Cl)ccc3[C@H]1N(Cc1ccccc1)C(=O)c1cc(OC)ccc12	-1.4%	-6.2%
CCCOC(=O)c1c(C)oc2c1cc(NS(=O)(=O)c1ccc(OCC)cc1)c1ccccc12	2.8%	41%
Cc1ccc(C)c(N2CCN(C(=O)C3CCN(Cc4nc(-c5cccc(Cl)c5)oc4C)CC3)CC2)c1	2.9%	?
Cc1ccc(C)c(CN2C(=O)c3ccccc3Sc3ccc(C(=O)N4CCC5(CC4)OCCO5)cc32)c1	0.3%	0.5%
COc1ccccc1-c1nn2c(=O)cc(CN3CCN(C(=O)COc4ccccc4Cl)CC3)nc2s1	-0.6%	-18%
